SmPrx2 inh = Schistosoma mansoni Prx2 inhibition. S. mansoni Prx2 activity coupled to TGR/GSH (TGR is thioredoxin glutathione reductase), NADPH fluorescence loss, qHTS; some inactives read as strong as hits. Potency, µM. actives 0.07% (n = 65,000). AID 448; active means full or partial inhibition curve with a strong effect at the top dose; inconclusive means weaker partial or single-point curve; inactive means no accepted curve; further: series up to 57 µM; many of its hits are not listed in these tables
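Enzyme mix: 100 uM NADPH, 25 nM TGR, 700 uM GSH, 50 nM Prx2 in 100 mM phosphate pH 7.4, 10 mM EDTA, 0.01% Tween-20. 15 min RT with compound; NADPH/GSH added, H2O2 starts reaction; NADPH fluorescence read 8 min.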
Anthrax LT inh = blocks cellular internalization of anthrax lethal toxin. Cells, anthrax lethal toxin internalization, FRET ratio (460/530). Potency, µM (highest dose often 40 µM), for inactives: top-dose activity change, negative = inhibition, actives largely listed as inhibitors. actives 0.67% (n = 70,000); active = well fitted falling ratio curve with the 530 nm signal flat; inconclusive = other ratio curves, or a change in one channel alone; inactive = flat curves in the ratio and both channels; the % refers to the ratio; further: on the % scale 0 is the no-effect control and ±100 the full control effect; nearly all actives have a fitted effect of over 50% in size; tested in ME-180 cells; beta-lactamase reporter
* hit, by the source's call; ? = inconclusive; · = no result given; & = joins results of further samples; [ ] = dose if it differs, or a comment. Potency means the concentration at half of the fitted maximal effect. The list is partial; rates above refer to the full screens.

SMILES	SmPrx2 inh	Anthrax LT inh
COc1ccc(N2C(=O)c3cccc4cccc(c34)C2=O)nn1	>57	7.94µM*
CCCOc1ccc(CC(CC(=O)O)(C(=O)O)C(=O)O)cc1	·	-1.4%
O=C(NCc1ccncc1)c1cccc(F)c1	>57	?
Cc1ccc(-c2nc(CSCC(=O)N3CCN(C(=O)c4ccco4)CC3)c(C)o2)cc1	>57	-14.6%
O=C(NC1CCCCC1)C1CC(=O)N(c2ccc(Cl)cc2)C1 (stereo not given)	>57	-14.5%
COCCCNC(=O)C1CC(=O)N(c2ccc(C)cc2)C1 (stereo not given)	>57	-0.4%
Cc1c(C(=O)N2CCCc3ccccc32)oc2ccc(S(=O)(=O)N3CCOCC3)cc12	>57	4.4%
Cc1ccc(-c2cc(C(=O)NCc3cccs3)no2)cc1	>57	10.0%
O=C(COC(=O)CCC(=O)c1ccc(Cl)cc1)NCC1CCCO1 (stereo not given)	>57	-2.5%
CCn1c(C(O)c2ccccc2)nc2ccccc21 (stereo not given)	·	-3.1%
CCc1cccc(NS(=O)(=O)c2c(C)n[nH]c2C)c1	>57	4.6%
Cn1c(SCC(N)=O)nnc1-c1ccccc1	>57	-8.1%
Cc1ccc(C)c(S(=O)(=O)Nc2ccccc2C(=O)Nc2cc(C)on2)c1	>57	?
O=C(O)c1ccc(Cl)c2c1C1C=CCC1C(c1ccccn1)N2 (stereo not given)	·	?
CCOC(=O)C(NC(=O)CC)(Nc1ccc(S(=O)(=O)Nc2onc(C)c2C)cc1)C(F)(F)F (stereo not given)	>57	6.7%
COc1cccc(-c2c(NC(=O)c3ccco3)n(-c3ccc(C)cc3)nc(C)c2=O)c1	>57	2.8%
COc1ccc(C2C(C(=O)N3CCC4(CC3)OCCO4)c3cc(OC)c(OC)cc3C(=O)N2C)cc1 (stereo not given)	>57	3.3%
CC/C=C\CC[C@H](OC(=O)c1ccc(Br)cc1)C1=CCCCC1=O	·	-6.9%[8 µM]
CN1CCc2c(sc3c2C(=O)NC(c2ccc4c(c2)OCO4)N3)C1 (stereo not given)	>57	·
O=C(O)CC1C(=O)NCCN1Cc1ccc(F)c(F)c1 (stereo not given)	>57	-3.9%
Cc1cc(/C=N/n2cnnc2)c(C)n1-c1cc(Cl)ccc1Cl	>57	-21.7%
Cc1ccccc1-n1c(SCc2c(C)noc2C)nnc1-c1ccncc1	>57	?
CC12CS(=O)(=O)CC1SC(=S)N2c1ccccn1 (stereo not given)	>57	2.5%
O=C(Nc1ccccc1)c1cc([N+](=O)[O-])ccc1Cl	>57&>57	?
O=C(NCCn1ccc2ccccc21)C1CCCCC1	>57	-21.3%
O=c1cc(CSc2nc3cc(Cl)ccc3o2)nc2sccn12	>57	-1.6%
Cn1c(=S)[nH]c2cccnc21	>57	-2.2%
CCCCCCNC(=O)c1c(O)c2ccccc2[nH]c1=O	>57	21.8%
C=CCNC(=O)CCCOc1cccc(C)c1	·	-6.3%
COc1ccc(-c2cc(C(F)(F)F)n3nc(C(=O)NCc4ccco4)cc3n2)cc1	·	?
CC(C)Sc1ncnc2c1oc1ccccc12	>57	-9.7%
Cc1ccc(C)n1-c1ccc(-n2cnnn2)cc1	>57	-13.2%
NC(=O)CSc1nnc(-c2cnccn2)n1-c1ccccc1	>57	-7.5%
CC(C)Cc1nnc(NC(=O)c2ccncc2)s1	>57	14.1%
Cc1cc(N2CCOCC2)nc2ccc(NC(=O)CCC(=O)N3CCCCC3)cc12	>57	-1.4%
O=C(O)c1c(-c2c3ccc(=O)cc-3oc3cc(O)ccc23)cc2ccccc2c1-c1ccccc1	>57	-0.6%[8 µM]
CC(C)=CCCC(C)CCO (stereo not given)	·	-8.0%
COc1ccccc1N(CC(=O)NC1CCCCC1)S(C)(=O)=O	·	-11.2%
CCOCCCNC(=O)C(NC(=O)c1ccccn1)c1ccc(C)cc1 (stereo not given)	>57	?
COC(=O)[C@@]1(Cc2ccc(OC)cc2)[C@@H]2[C@@H](CC(=O)[C@H]2CC(=O)C(=O)N(C)C)CN1C(=O)c1ccccc1	>57	?
c1ccc2c(N3CCOCC3)nc(-c3ccoc3)nc2c1	>57	1.5%
CCn1c(Sc2nc(C)nc3scc(-c4cccs4)c23)n[nH]c1=O	>57	-14.6%
O=C(NCC1CCCO1)c1c(O)c2cccc3c2n(c1=O)CC3 (stereo not given)	>57	-29.2%
CS(=O)(=O)N1CCC2(CC1)CN(Cc1nccs1)C2	>57	-27.3%
O=C(NCCc1cn2ccccc2n1)c1ccc(Br)o1	>57	10.4%
O=C(CSc1nc2c(c(=O)n1-c1ccc(F)cc1)SCC2)NCC1CCCO1 (stereo not given)	>57	3.1%
O=c1c(-c2cccc(F)c2)nc2cncnc2n1Cc1ccc(F)cc1	>57	?
CCOC(=O)N1CCC(NC(=O)c2cc3ccccn3n2)CC1	>57	8.6%
COc1ccc(NC(=O)Cn2nnc(-c3ccccc3N)n2)cc1OC	>57	-14.6%
NC(=O)COC(=O)CCCc1c[nH]c2ccccc12	>57	6.2%

Carrying on.
SMILES	SmPrx2 inh	Anthrax LT inh
CCc1ccc(NC2=NCC(=O)N2Cc2ccc3c(c2)OCO3)cc1	>57	10µM*
NC(=O)N/N=C1\CC[C@H](O)C[C@@H]1CC(=O)O	>57	-6.3%[8 µM]
Cc1cc(N2CCCCC2)nc(SCc2ccc(C#N)cc2)n1	>57	-14.5%
Cc1cc(NC(=O)CSc2nnc(-c3ccc(S(=O)(=O)N4CCCC4)cc3)n2C)no1	>57	-8.5%
CCOC(=O)Cn1c(C)nc2ccccc21	·	-11.3%
COC(=O)N(/C=C/c1ccc(OC)cc1)CCc1ccc(OC)c(OC)c1	·	-10.3%[8 µM]
Cc1cccn2c(=O)c3cc(C(=O)N4CCC5(CC4)OCCO5)n(C)c3nc12	>57	?
c1coc(-c2nnc(SCc3nc4ccccc4[nH]3)o2)c1	>57	-6.4%
Nn1c(SCc2cn3ccsc3n2)nnc1-c1ccncc1	>57	-1.5%
CNC(=O)CN(Cc1ccccc1)S(=O)(=O)c1ccccc1	>57	1.2%

Reprinted at random: three records from the list
SMILES	SmPrx2 inh	Anthrax LT inh
NC(=O)N/N=C1\CC[C@H](O)C[C@@H]1CC(=O)O	>57	-6.3%[8 µM]
Cc1cccn2c(=O)c3cc(C(=O)N4CCC5(CC4)OCCO5)n(C)c3nc12	>57	?
CNC(=O)CN(Cc1ccccc1)S(=O)(=O)c1ccccc1	>57	1.2%

Later entries:
SMILES	SmPrx2 inh	Anthrax LT inh
Cc1ccc2cc(C#N)c(N3CCCN(C(=O)C4CCCO4)CC3)nc2c1C (stereo not given)	>57	-2.5%
Cc1nc2nc(C)c(CCC(=O)N3CCC4(CC3)OCCO4)c(C)n2n1	>57	9.3%
Cc1ccc(C(=O)CC2(O)C(=O)N(Cc3ccccc3Cl)c3ccccc32)o1 (stereo not given)	>57	-20.4%
CCOC(=O)c1sc(=NC(=O)c2ccc(S(=O)(=O)N3CC(C)OC(C)C3)cc2)n(C)c1C (stereo not given)	>57	-2.9%
COc1ccc(C2C(C(=O)Nc3cccc(C)n3)c3ccccc3C(=O)N2C)cc1OC (stereo not given)	>57	-12.6%
CNC[C@H](O)[C@H](O)[C@H](O)[C@H](O)CO	>57	1.6%[3.58 µM]
O=S(=O)(Nc1ccn(-c2ccccc2)n1)c1ccc(Br)cc1	·	?
O=C(O)C1=CCCNC1	>57&>25.6	7.9%&-9.5%
Nc1nncn1C(=O)CCCN1C(=O)c2ccccc2C1=O	>57	5.7%
CSc1ccc(CN(C)CC(=O)NC(=O)NC(C)(C)C)cc1	>57	-23.9%
Cc1ccc(S(=O)(=O)NCc2ccc(C(=O)NCCCN3CCN(C)CC3)cc2)cc1	>57	7.1%
COc1cc(NC(=O)NCc2ccncc2)cc(OC)c1OC	>57	-13.1%
Fc1cnc(N2CCOCC2)nc1N1CCc2ccccc21	>57	4.2%
CCCNC(=O)NC(C(=O)OC)C12CC3CC(CC(C3)C1)C2 (stereo not given)	>57	1.0%
Cc1[nH]nc2c1C(c1ccc(F)cc1)C1=C(CC(C)(C)CC1=O)N2 (stereo not given)	>57	?
OC(CN1c2ccccc2Sc2ccccc21)Cn1nnc2ccccc21 (stereo not given)	>57	?
COC(=O)c1cc(OC)c(OC)cc1NC(=O)c1oc2ccccc2c1C	>57	-8.6%
CCC(=O)Nc1sc(C(=O)N2CCCCC2)c(C)c1C#N	>57	-6.7%
CN(Cc1ccccc1)Cc1ccccc1OC(=O)N(C)C	>57	-1.6%
O=C(c1cccs1)N1CCC(c2nc(-c3ccc(S(=O)(=O)N4CCOCC4)cc3)no2)CC1	>57	-10.9%
CCOP1(=S)Oc2cc3c(cc2C(C(=O)OC)(C(F)(F)F)O1)OCO3 (stereo not given)	>57	-14.6%
Cc1cc(C)c(C#N)c(SCC(=O)Nc2ccc(S(=O)(=O)Nc3onc(C)c3C)cc2)n1	?	-5.2%
CC1CN(c2oc(Cc3cccc4ccccc34)nc2C#N)CC(C)O1 (stereo not given)	>57	?
Cn1c(/N=C/c2ccc3c(c2)OCO3)nc2ccccc21	·	-9.9%
CCOc1ccc(NC(=O)CCN2CCN(S(=O)(=O)c3cc(Cl)ccc3OC)CC2)cc1	>57	11.9%
CCCC1CC(c2csc(N)n2)CCO1 (stereo not given)	>57	2.3%
O=c1c2ccccc2nc(SCc2cn3ccsc3n2)n1-c1ccc(F)cc1	>57	?
O=C(c1cccs1)N1CCCc2ccccc21	>57	-10.8%
O=C(NCCCn1ccnc1)C(F)(F)C(F)(F)C(=O)NCCCn1ccnc1	>57	0.2%
CCOC(=O)N1CCN(C(=O)c2ccc3nc(N4CCC(C)CC4)sc3c2)CC1	>57	2.4%

Some of these compounds in order of SMILES length, lowest first:
SMILES	SmPrx2 inh	Anthrax LT inh
O=C(c1cccs1)N1CCCc2ccccc21	>57	-10.8%
Cn1c(/N=C/c2ccc3c(c2)OCO3)nc2ccccc21	·	-9.9%
O=c1c2ccccc2nc(SCc2cn3ccsc3n2)n1-c1ccc(F)cc1	>57	?
Cc1cc(C)c(C#N)c(SCC(=O)Nc2ccc(S(=O)(=O)Nc3onc(C)c3C)cc2)n1	?	-5.2%

(further entries)
SMILES	SmPrx2 inh	Anthrax LT inh
COc1cc(S(=O)(=O)N2CCOCC2)c(OC)c(S(=O)(=O)N2CCOCC2)c1	>57	-0.5%
O=C1c2ccccc2NC(c2ccc3c(c2)OCO3)N1O (stereo not given)	>57	-6.9%
COCCn1c(SCC(=O)Nc2ncc(Cl)c(C)c2Cl)nc2ccccc21	>57	-3.2%
CC(=O)C[C@H](c1ccc([N+](=O)[O-])cc1)c1c(O)c2ccccc2oc1=O	>57	-5.1%[3.58 µM]
O=C(Nc1ccccc1)c1ccc(NCc2ccco2)c(S(=O)(=O)N2CCOCC2)c1	>57	·
Cc1ccc(S(=O)(=O)c2nc(-c3ccc(F)cc3)oc2SCC(=O)NCC2CCCO2)cc1 (stereo not given)	>57	?
CC1(C)NC(=O)N(CCCOc2ccc(Br)cc2Cl)C1=O	>57	-25.7%
CCc1cccc(C)c1NC(=O)CSc1nc2ccccc2n1CC(=O)N(C)C	>57	?
Cc1nc2nc(C)c(CCC(=O)N3CCOCC3)c(C)n2n1	>57	7.7%
COc1ccc(CSC2=C(C#N)C(=O)NC3(CCCCC3)S2)cc1	>57	?
CCOC(=O)C(C)Sc1nnc(CNC(=O)c2ccc(OC)cc2)n1C1CCCCC1 (stereo not given)	>57	?
O=C(CSC1=NCCS1)Nc1ccnc2ccccc12	>57	5.7%
O=C(NCCn1ccc2ccccc21)c1ccc(S(=O)(=O)N2CCCCC2)cc1	>57	1.4%
CCc1cccc(C)c1NC(=O)c1ccoc1C	>57	-13.0%
CCOC(=O)C1=C(C)NC2=C(C(=O)CCC2)C1c1ccsc1 (stereo not given)	>57	26.8%
Cc1cc(NC(c2cccnc2)c2c(C)[nH]c3ccccc23)no1 (stereo not given)	>57	-3.4%
COc1ccc(N2CCN(CC(=O)Nc3cc(C)on3)CC2)cc1	>57	1.1%
CC(C)(CSc1nncn1N)NS(=O)(=O)c1ccc(Cl)cc1	>57	5.2%
O=C(NCc1ccc2c(c1)OCO2)c1ccc(CS(=O)(=O)c2cccc(C(F)(F)F)c2)o1	>57	6.9%
O=C(c1cc(-c2ccc(O)cc2)on1)N1CCc2ccccc2C1	>57	?
Cc1nnc(SCC(=O)NCc2cccs2)n1-c1ccccc1	>57	8.0%
CCNC(=O)C1CC(=O)N(c2ccc(Br)cc2)C1 (stereo not given)	>57	-9.1%
CCCOc1ccc(S(=O)(=O)NCCCN2CCOCC2)c2ccccc12	>57	-8.6%
COc1ccc(CCNC(=O)CN(c2ccc(C)cc2)S(=O)(=O)c2c(C)noc2C)cc1OC	>57	6.2%
O=C(CSc1ncc(C(F)(F)F)cc1Cl)N1CCN(S(=O)(=O)c2ccccc2)CC1	>57	-9.9%
Cc1noc(C)c1S(=O)(=O)N(CC(=O)Nc1ccc2c(c1)OCO2)c1ccc(C(C)C)cc1	>57	?

Part of the list above in a different format:
smiles | SmPrx2 inh | Anthrax LT inh
CCCOc1ccc(S(=O)(=O)NCCCN2CCOCC2)c2ccccc12 | >57 | -8.6%
COc1ccc(CCNC(=O)CN(c2ccc(C)cc2)S(=O)(=O)c2c(C)noc2C)cc1OC | >57 | 6.2%
O=C(CSc1ncc(C(F)(F)F)cc1Cl)N1CCN(S(=O)(=O)c2ccccc2)CC1 | >57 | -9.9%
